Source: PubChem BioAssay (Fisher Drug Discovery Resource Center)
NPYLR7 agonist: activates Aedes aegypti NPYLR7 receptor; HEK293T NPYLR7/Galpha15, GCaMP6s calcium fluorescence; activation, % at 10 µM; hit rate 0.15% among 270,000; in the data active = activation above about 40%;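 also: 0% = vehicle and 100% = reference agonist at the receptor; some compounds past the cut are filed as inactive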
NPYLR7 agonist max-min: second read-out of NPYLR7 agonist, no call of its own (marks repeat the call); activation, %; measured here: Max-Min RFU normalised activation; some inactives read as strong as hits;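 span of the calcium signal over five minutes; 0% = vehicle and 100% = native peptide agonist; compound fluorescence can raise it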
* = called active by the depositor; & = joins results of further samples.

SMILES	NPYLR7 agonist	NPYLR7 agonist max-min
O=C(NCCCOCc1ccccc1)C1CCCN(S(=O)(=O)c2ccc(F)cc2)C1 (stereo unspecified)	2	20
CCOC(=O)c1cn[nH]c1S(=O)(=O)N1CCN(C)CC1	-3	-6
COc1ccc(-c2noc(CN3CCC(c4ccccc4Cl)C3)n2)c(OC)c1OC (stereo unspecified)	4	-2
CCC1SC(c2ccccc2Cl)N(CCN2CCN(C(=O)Nc3ccc(C(F)(F)F)cc3)CC2)C1=O (stereo unspecified)	-14	-12
CCN1CC(CN(C)Cc2nc(Cc3cccc(F)c3)no2)CC1=O (stereo unspecified)	-6	-10
Clc1ccc2nc(N/N=C\c3ccc4c(c3)OCO4)nc(-c3ccccc3)c2c1	-1	-5
CCCOC1CCCN(C(=O)c2cccc(C)c2)C1 (stereo unspecified)	-4	2
Nc1nc(NCC2CCOCC2)cc(N2CCOCC2)n1	16	8

Next section:
SMILES	NPYLR7 agonist	NPYLR7 agonist max-min
O=C(Nc1ccnn1C1CCCCC1)c1c(O)cc(F)cc1F	1	-1
O=C1N=C(N2CCOCC2)SC1=C1CCCCC1	6	8
C[C@]12CCC(=O)C=C1CCC1C2[C@@H](O)C[C@@]2(C)C1CC[C@]2(O)C(=O)COC(=O)CCC(=O)O (stereo partly specified)	-7	-10
COc1nn(C)cc1C(=O)Nc1ccc(C)cc1	1	3
CNC(=O)c1cc(S(=O)(=O)N2C[C@@H]3[C@H](C2)[C@H]2CC[C@@H]3O2)cs1	6	6
CC1CC(C)n2nccc2N1C(=O)Cc1coc(-c2cccs2)n1 (stereo unspecified)	-6	-8
CNC(=O)[C@@H]1C[C@@H](N)CN1C(=O)Cn1cc(C(F)(F)F)ccc1=O	7	6
O=C1NC(=O)c2cc(Nc3ccc(F)cc3)c(Nc3ccc(F)cc3)cc21	-15	-21

Additional results.
SMILES	NPYLR7 agonist	NPYLR7 agonist max-min
Cc1ccc2oc(C(=O)NCc3n[nH]c4c3CCC4)cc2c1	-4	-3
O=C(CCc1ccco1)NC1CCCN(CCc2ccccc2)C1 (stereo unspecified)	6	6
c1cc(NC2CCCCCCC2)cc(-n2ccnc2)c1	-22	-22
COc1cccc(-c2cc(C(=O)N3CCN(c4ccc([N+](=O)[O-])cc4)CC3)nc3cc(C(C)(C)C)nn23)c1	3	8
O=C(NCCSC1Sc2ccccc2NC1=O)c1cccc(SC(F)F)c1 (stereo unspecified)	-4	-12
CNCc1cn(C[C@H]2O[C@@H](CC(=O)NCc3ccc(F)cc3)[C@H](O)[C@@H]2O)nn1	-9	-15
COc1ccc2nc(-c3ccc(C)c(NC(=O)Cc4ccc(F)cc4)c3)cn2n1	-10	-18
CN(CCOc1ccccc1)C(=O)c1cc(Br)c[nH]1	12	7

Following part:
SMILES	NPYLR7 agonist	NPYLR7 agonist max-min
CCCCCCCC(=O)N(CC(=O)c1c(C)c(C(=O)OC)n(CC)c1C)CC(C)C	-12	-8
O=C(C1CCN(c2nc(Cc3ccccc3)ns2)CC1)N1CCN(c2ccccc2F)CC1	14	12
COc1cccc(-c2cc(C(=O)NCCc3ccccn3)c(C)n2-c2ccccc2)c1	-7	-6
CN(C)C(=O)c1ccc2c(c1)N(C)C(CC(=O)Nc1ccc(F)cc1O)CO2 (stereo unspecified)	2	0
COCCCNCc1ccc(OS(C)(=O)=O)cc1	15	12
Fc1ccc(CNCC(F)(F)F)cc1	13	8
CC(c1cccc(-c2coc3ccccc3c2=O)c1)N1CCCC1 (stereo unspecified)	13	4
Cc1ccc(C(=O)NCCc2nnc3ccc(SCc4ccccc4F)nn23)cc1	3	-8

(more compounds)
SMILES	NPYLR7 agonist	NPYLR7 agonist max-min
Cc1cc(C)c(NC(=O)CN(C)c2cccc(F)c2C#N)c(C)c1	1	1
Cc1ccc(Cl)cc1Nc1ncccc1C(=O)N[C@H]1C[C@H]2CC[C@@H]1C2	-7	-14
CC(C)Cc1nc(N2CCN(C(=O)N(C)C)CC2)c2c(-c3cccc(Oc4ccccc4)c3)noc2n1	18	3
CCOc1ccc(-c2cnc(-c3cccc(C(=O)OC)n3)[nH]2)cc1	7	2
O=C(N[C@@H]1CCCCC1NC(=O)C1CCCN(C(=O)CCCl)C1)c1ccccc1 (stereo partly specified)	23	21
CCOc1ccc(N2C(=O)NC(=O)C([S+](C)C)C2=O)cc1 (stereo unspecified)	-3	-4
O=C(CSc1nc2ccccc2[nH]1)N/N=C\c1ccccc1[N+](=O)[O-]	10	9
CCC(C)C(NC(=O)c1ccc(Cl)cc1Cl)C(=O)Nc1nnc(-c2ccc3c(c2)OCO3)s1 (stereo unspecified)	-5	-5

(further entries)
SMILES	NPYLR7 agonist	NPYLR7 agonist max-min
CCOc1ccc(NC(=O)c2sccc2S(=O)(=O)N(C)c2ccc(CC)cc2)cc1	-1	-3
O=C1CN(Cn2c(=S)n(Cc3ccccc3)c3ccc(Cl)cc32)CCN1	2	1
Cc1ccc(-n2nc(C(=O)NC(C)c3ccccc3)c(=O)n(Cc3ccccc3F)c2=O)cc1C (stereo unspecified)	18	15
CC1(C(=O)O)CCN1C(=O)c1ccccc1OC(F)(F)F (stereo unspecified)	1	-1
CCCCNc1nnc(SC(C)C(=O)N(C)C2CCCCC2)s1 (stereo unspecified)	7	14
c1ccc(Cn2cccn2)c(CN2CCOC3(CNCCOC3)C2)c1 (stereo unspecified)	4	2
COc1ccc(C(=O)N(Cc2ccccc2)C2CCC(NC(=O)C3CCN(C(=O)c4cccc(F)c4)CC3)CC2)cc1 (stereo unspecified)	4	14
COc1cc(-c2cc(C(F)(F)F)n3ncc(C(=O)Nc4ccc(C)c(C)c4)c3n2)cc(OC)c1OC	-1	5

Going on with the list.
SMILES	NPYLR7 agonist	NPYLR7 agonist max-min
CCC(=O)Nc1c(C)nc2ccccn2c1=O	2	0
Cn1ccnc1-c1ccc(NC2CCCN(Cc3ccccc3)C2)nn1 (stereo unspecified)	1	0
Cc1c(C)n2c3c(=O)n(Cc4c(F)cccc4Cl)c(=O)n(C)c3nc2n1CCN1CCOCC1	8	11
CC(Nc1ncc(C(F)(F)F)cc1Cl)C1CCCO1 (stereo unspecified)	9&6	5&2
O=C(NN1CCOCC1)c1c2c(nc3ccccc13)CCN(CCc1ccccc1)C2	2	7
COc1cccc2sc(NNC(=O)c3cc(=O)c4ccccc4o3)nc12	3	-1
Nc1nonc1C(=O)NCc1ccco1	5	2
O=C(NC1CCCOc2ccc(F)cc21)C1CCN(c2ccc(Cl)cn2)CC1 (stereo unspecified)	2	-2

Carrying on.
SMILES	NPYLR7 agonist	NPYLR7 agonist max-min
CC(C)(C)c1cc(NC(=O)C(=O)NCc2ccc(Cl)s2)no1	19	19
COCCNCc1csc(COc2cccc(C)c2)n1	-7	-5
O=C1c2ccccc2C(=O)c2c1oc1c3c(ccc21)OCN(CCC1=CCCCC1)C3	7	12
COc1ccccc1NC(=O)CCC(=O)N1CCc2ccccc2C1	3	1
COc1ccc(CN(CC(O)COCC(C)C)C2CC2)cc1OC (stereo unspecified)	10	21
Nc1nc(C23CC4CCC(CC(C4)C2)C3)cs1	3	38
CCn1ccc(-c2n[nH]c(=O)n2CCc2ccccc2F)n1	-1	-3
CCOC(=O)CCCC(=O)N1CCN(c2ccc(-c3cc(C(=O)OCC)nn3-c3ccc(F)cc3)cc2)CC1	-2	-3

The closing 2 entries of the section above lead into the next:
SMILES	NPYLR7 agonist	NPYLR7 agonist max-min
CCn1ccc(-c2n[nH]c(=O)n2CCc2ccccc2F)n1	-1	-3
CCOC(=O)CCCC(=O)N1CCN(c2ccc(-c3cc(C(=O)OCC)nn3-c3ccc(F)cc3)cc2)CC1	-2	-3
O=C(NCCc1csc2nc(-c3cccs3)nn12)c1c(F)cccc1Cl	18	17
CCC(C)N(Cc1cccc(OS(=O)(=O)c2cccc(C(F)(F)F)c2)c1)C(=O)Nc1c(C(C)C)cccc1C(C)C (stereo unspecified)	1	11
CCOC(=O)c1cc2[nH]c3ccccc3c2[n+](-c2ccc([N+](=O)[O-])cc2)c1C	22	30
Cc1nnc(C)n1-n1ccc2c(cnc3nc(-c4ccccc4)nn32)c1=O	3	2
CC1(Cc2ccccc2OC(F)(F)F)C(=O)Nc2ccccc21 (stereo unspecified)	5	3
Clc1ccccc1CSc1ncnc2c1nnn2Cc1ccccc1	6	25
N#CC(=C(O)COC(=O)C1CC(=O)N(Cc2ccco2)C1)c1nc2ccccc2[nH]1 (stereo unspecified)	2	-3
O=C1C[C@@H](c2ccc(O)cc2)Oc2cc(O)cc(O)c21	2	-3

Next section.
SMILES	NPYLR7 agonist	NPYLR7 agonist max-min
CCCSc1ncccc1C(=O)N1CCC(O)(c2ccccc2)CC1	-6	-10
c1ccc2c(c1)CC(CNCC1(CN3CCOCC3)CCCCC1)CO2 (stereo unspecified)	-6	-5
OC1C[C@H]2CC[C@@H](C1)N2Cc1cc2n(n1)CCNC2 (stereo partly specified)	5	1
O=c1c2nc(-c3ccc(Br)cc3)cn2ccn1-c1ccc(F)cc1	1	1
NCC(=O)Nc1ccccc1/C=C/c1ccccc1	7	7
CCN(CCN1C(=O)CSC1c1cccs1)C(=O)C1CCC1 (stereo unspecified)	26	25
COCC1CCCN(Cc2ccc3c(c2)CN(C(=O)COc2ccccc2Cl)CCO3)C1 (stereo unspecified)	19	7
NC(=O)c1cc2cc([N+](=O)[O-])ccc2oc1=Nc1cccc(C(F)(F)F)c1	-3	-9

New compounds follow.
SMILES	NPYLR7 agonist	NPYLR7 agonist max-min
COCCN1C(=O)NC(c2ccccc2Cl)C(C(=O)N2CCOCC2)=C1C (stereo unspecified)	5	3
Cc1ccn(CCC(=O)N2CCC3(CCCN(CCC4CCCCC4)C3)C2)n1 (stereo unspecified)	6	5
COc1ccc(CN(C)C(C)c2c(C)nn(C)c2C)c(C)c1C (stereo unspecified)	0	-2
CCCCCCCCNC(N)=S	-1	0
CCNc1cc(C)nc(N2CCN(C(=O)c3cc(C)cc(C)c3)CC2)n1	7	1
O=C(O)/C=C\C(=O)Nc1cc(Cl)cc(Cl)c1	-9	-12
CCOc1ccc(CN2CCN(Cc3cccc4cnccc34)CC2CCO)cc1 (stereo unspecified)	15	4
CCN(CC(=O)NC(C)C)C(=O)CSc1nccn1-c1cc(C)cc(C)c1	8	2

13 entries out of the list, ordered by heavy-atom count, smallest number first:
SMILES	NPYLR7 agonist	NPYLR7 agonist max-min
CCCCCCCCNC(N)=S	-1	0
O=C(O)/C=C\C(=O)Nc1cc(Cl)cc(Cl)c1	-9	-12
OC1C[C@H]2CC[C@@H](C1)N2Cc1cc2n(n1)CCNC2 (stereo partly specified)	5	1
O=C1C[C@@H](c2ccc(O)cc2)Oc2cc(O)cc(O)c21	2	-3
CCN(CCN1C(=O)CSC1c1cccs1)C(=O)C1CCC1 (stereo unspecified)	26	25
COc1ccc(CN(C)C(C)c2c(C)nn(C)c2C)c(C)c1C (stereo unspecified)	0	-2
O=c1c2nc(-c3ccc(Br)cc3)cn2ccn1-c1ccc(F)cc1	1	1
CCCSc1ncccc1C(=O)N1CCC(O)(c2ccccc2)CC1	-6	-10
c1ccc2c(c1)CC(CNCC1(CN3CCOCC3)CCCCC1)CO2 (stereo unspecified)	-6	-5
NC(=O)c1cc2cc([N+](=O)[O-])ccc2oc1=Nc1cccc(C(F)(F)F)c1	-3	-9
Cc1ccn(CCC(=O)N2CCC3(CCCN(CCC4CCCCC4)C3)C2)n1 (stereo unspecified)	6	5
CCOc1ccc(CN2CCN(Cc3cccc4cnccc34)CC2CCO)cc1 (stereo unspecified)	15	4
COCC1CCCN(Cc2ccc3c(c2)CN(C(=O)COc2ccccc2Cl)CCO3)C1 (stereo unspecified)	19	7

New compounds follow:
SMILES	NPYLR7 agonist	NPYLR7 agonist max-min
Cc1ccc(CNC(=O)CCCc2nc3ccccc3o2)cc1	-2	-1
Cc1ccc(-c2nnc3n2N=C(c2ccc(O)c(O)c2)CS3)cc1	2	-1
CCOC(=O)c1c(C)nn(-c2ccc(C(=O)NCCc3ccccn3)cc2)c1C	1	-1
Cc1ccc2c(c1)c(Cn1cnc(-c3ccccc3)c1-c1cnn(C)c1)nn2C	1	-1
O=S(=O)(Cc1ccccc1)Nc1noc2ccccc12	-14	-22
O=C(CNC(=O)c1ccc2c(c1)OCO2)NCc1ccco1	23	14
Cc1cc(C)c2[nH]c(O)c(N=NC(=O)CC3CCS(=O)(=O)C3)c2c1 (stereo unspecified)	6	6
CCCCS(=O)(=O)Oc1cccc(C(=O)O)c1	3	2

Continued:
SMILES	NPYLR7 agonist	NPYLR7 agonist max-min
COc1ccccc1NC(C)C(=O)Nc1sc2c(c1C#N)CCCCC2 (stereo unspecified)	0	-5
CCc1ccc(S(=O)(=O)N2CCN(Cc3nnnn3-c3ccc(F)cc3)CC2)s1	-1	-1
O=C1C2C(c3ccccc3)C=CC(c3ccccc3)C2C(=O)N1Cc1ccc(F)cc1 (stereo unspecified)	9	5
COc1ccc(Cl)cc1S(=O)(=O)N1CCCC(CNC(=O)c2ccco2)C1 (stereo unspecified)	-8&2	-8&-5
CSc1nnc2c(n1)OC(c1ccc(O)cc1)Nc1ccccc1-2 (stereo unspecified)	-6	-7
CC1(Cc2ccccc2F)C(=O)Nc2cccc(Cl)c21 (stereo unspecified)	2	1
Cn1c2c(c(=O)n(C)c1=O)C(c1ccc(Br)cc1)Nc1ccccc1O2 (stereo unspecified)	11	13
O=C(c1cc(COc2ccc(-n3cncn3)cc2)on1)N1CCCC1c1nccs1 (stereo unspecified)	3&3	1&1

(further entries)
SMILES	NPYLR7 agonist	NPYLR7 agonist max-min
Cc1nc(CN2CCCCC2CCc2ccc(O)cc2)co1 (stereo unspecified)	2	0
C=CCNS(=O)(=O)c1cccc(C(=O)NCc2nnc3ccc(C(F)(F)F)cn23)c1	5	2
CCOC(=O)c1ccc(NC(=O)c2cn(C)c3c(=O)n(-c4ccc(C)cc4)c(=O)[nH]c23)cc1	12	10
CC(=O)c1cccc(OCc2cc(=O)n3ccsc3n2)c1	11	16
COc1ccc(Cl)c(NC(=O)NCCCCn2ccccc2=O)c1	-1	22

These rows are one share of the data (hit frequency here may not be typical).
